High-throughput results deposited in PubChem by National Center for Advancing Translational Sciences (NCATS).
Lassa entry inh – inhibitors of Lassa virus binding or cell entry. Lassa virus pseudotype entry inhibition, cell reporter; control for the full effect not named in the record. Potency, µM (doses to about 37.9 µM), inactives show at the highest dose activity change, negative = inhibition, hits mostly inhibitors. 300,000 tested, 1.2% active; active means well fitted inhibition curve with a large enough effect; inconclusive means small, poorly fitted or top-dose-only effect, or effect the other way; inactive means flat fitted curve, though single readings scatter; tested in HEK293 cells; also: % is scaled to controls: 0 for no effect and ±100 for the full control effect; nearly all actives have a fitted effect of over 50% in size; luciferase read-out
Cruzain Triton – blocks cruzain activity in presence of Triton detergent; 200,000 tested, 0.43% active; Potency, µM, inactives show max response, negative = inhibition, usual class: inhibitors; P25779; purified cruzain, Z-FR-AMC fluorescence, 0.01% Triton; AID 1478;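 also: plate controls were neutral wells for no effect and buffer without enzyme for full effect; nearly all actives have a fitted effect of over 40% in size; top concentration of the series not given in the record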
Target sequence (P25779 123-467 limits assumed): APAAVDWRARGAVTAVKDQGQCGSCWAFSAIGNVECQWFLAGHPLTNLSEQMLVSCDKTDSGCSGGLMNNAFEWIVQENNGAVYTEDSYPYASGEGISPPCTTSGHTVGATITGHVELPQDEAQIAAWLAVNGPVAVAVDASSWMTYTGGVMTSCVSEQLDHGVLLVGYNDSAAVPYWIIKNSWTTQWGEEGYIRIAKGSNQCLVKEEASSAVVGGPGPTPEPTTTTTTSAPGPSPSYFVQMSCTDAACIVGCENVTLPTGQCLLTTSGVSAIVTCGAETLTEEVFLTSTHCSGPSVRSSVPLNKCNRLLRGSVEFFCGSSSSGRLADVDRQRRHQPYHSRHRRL
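Enzyme 1.5 nM, Z-FR-AMC 2 uM, NaOAc 100 mM pH 5.5, DTT 5 mM, Triton X-100 0.01%; 15 min RT compound preincubation; kinetic ex360/em450, 60 s delta.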
NS1 function inh – blocks influenza NS1 protein function; AID 2326; S. cerevisiae slowed by influenza A NS1, growth recovery by OD600; Potency, µM (titrated, usually from 46.1 µM), for inactives: top-dose activity, positive = more growth; 270,000 tested, 0.4% active; active means well fitted rising curve with a large enough effect; inconclusive means small, poorly fitted or top-dose-only effect; inactive means no such curve, though single readings can be large or run the other way; also: nearly all actives have a fitted effect of over 50% in size
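Read-out: OD600 growth recovery of NS1-expressing budding yeast. Cells grown overnight at 30C in -URA glucose medium, washed, resuspended and diluted 1:100 in 2% galactose assay medium, pH 6.0. Same strain lacking NS1 served as positive control.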
Marburg entry inh – Marburg virus entry inhibition. Marburg virus pseudotyped entry inhibition, cell reporter; control for the full effect not named in the record; about a third of the inactives were read at about 46 µM. Potency, µM (titrated, usually from 37.8 µM), for the others: at the highest dose activity change, negative = inhibition, usual class: inhibitors. 300,000 tested, 1.8% active; active = well fitted inhibition curve with a large enough effect; inconclusive = small, poorly fitted or top-dose-only effect, or effect the other way; inactive = flat fitted curve, though single readings scatter; tested in HEK293 cells; about a fifth of its hits are not listed in these tables; also: % is scaled to controls: 0 for no effect and ±100 for the full control effect; luciferase read-out
SARS PLP yeast – SARS-CoV PLP inhibition in yeast; Potency, µM (doses to about 32.9 µM), for inactives: at the highest dose activity, positive = growth rescue; 330,000 tested, 0.19% active; S. cerevisiae expressing SARS-CoV PLpro, growth rescue; control for the full effect not named in the record; active means well fitted rising curve with a large enough effect; inconclusive means small, poorly fitted or top-dose-only effect; inactive means no such curve, though single readings can be large or run the other way; also: 0% is about no effect; nearly all actives have a fitted effect of over 55% in size; growth read by luminescence after 48 h
RE007 growth inh – less growth of the S. pombe RE007 Vpr strain. S. pombe RE007 Vpr strain, BacTiter-Glo ATP luminescence, 24 h; control for the full effect not named in the record. Potency, µM (titrated, usually from 92.2 µM), inactives show at the top dose activity change, negative = less growth. 360,000 tested, 0.21% active; active = well fitted falling curve with a large enough effect; inconclusive = small, poorly fitted or top-dose-only effect; inactive = no such curve, though single readings can be large or run the other way;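 also: % is scaled to controls: 0 for no effect and ±100 for the full control effect; nearly all actives have a fitted effect of over 50% in size; the assay follows cell death caused by Vpr and the record does not say whether a fall means rescue or toxicity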
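Fission yeast strain RE007, carrying one chromosomally integrated HIV-1 vpr copy, was seeded at OD 0.01 in PMG+AL medium with 23 nL pinned compound. After 24 h at 30 °C and 99% humidity, viability was read by BacTiter-Glo luminescence.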
StopGo reporter – FMDV 2A StopGo reporter, luciferase signal; human cells with a luciferase reporter of 2A StopGo recoding; control for the full effect not named in the record; Potency, µM (doses to about 57.9 µM), for inactives: at the highest dose signal change, negative = less light; 410,000 tested, 1.2% active; AID 1159524; active = well fitted falling curve with a large enough effect; inconclusive = small, poorly fitted or top-dose-only effect; inactive = no such curve, though single readings can be large or run the other way; tested in HEK293T cells; also: % is scaled to controls: 0 for no effect and ±100 for the full control effect; nearly all actives have a fitted effect of over 45% in size; luciferase light after 4 h
Cruzain noTriton – cruzain (T. cruzi) inhibition without detergent; purified cruzain, Z-FR-AMC fluorescence, no detergent; Potency, µM, for inactives: max response, negative = inhibition, usual class: inhibitors; 200,000 tested, 2.3% active; AID 1476;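 also: plate controls were enzyme without inhibitor for no effect and buffer without enzyme for full effect; nearly all actives have a fitted effect of over 40% in size; top concentration of the series not given in the record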
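Purified cruzain at 1.5 nM, pre-incubated 15 min with compound at room temperature in 100 mM sodium acetate pH 5.5, 5 mM DTT, 0.00005% Triton X-100. Reaction started with 2 uM Z-FR-AMC; AMC fluorescence increase over 60 s gives rate.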
* marks the source's active call; other numbers are inactive results; ? = inconclusive; / = not tested or not shown; & = joins results of further samples; [ ] = remark or other dose. Unless noted, calls follow the shape of the dose curve; as a rule, active = well fitted curve in the direction sought with a large enough effect; inconclusive = small, poorly fitted or top-dose-only effect, or another doubt; inactive = no such curve, though single readings can be large; an effect the other way counts as inactive or inconclusive. Potency is read from the fitted curve at half-maximal effect.

The line under a structure holds: Lassa entry inh	Cruzain Triton	NS1 function inh	Marburg entry inh	SARS PLP yeast	RE007 growth inh	StopGo reporter	Cruzain noTriton
#1 Cn1cnnc1SCC(=O)Nc1ccc2nc(SCc3cccc4ccccc34)sc2c1
  0%	-10%	12%	?	4%	-7%	?	?
#2 CC1(C)CC(=O)C=C(OC(=O)c2ccc(Cl)cc2)C1
  1%	-3.1%	0%	12%	10%	-4%	-3%	-13%
#3 O=C(COc1ccc(Cl)cc1)Nc1nnc(C2=COCCO2)o1
  10%	/	/	-6%[46.1 µM]	1%	-2%	3%	/
#4 CCC(C)NC(=O)CSc1n[nH]c(-c2cc(Cl)ccc2OC)n1 (stereo not given)
  /	/	/	-14%[46.1 µM]	-1%	-2%	-4%	/
#5 CCOC(=O)N1CCC(NC(=O)c2cnn(-c3cccc(C)c3)c2-n2cccc2)CC1
  -19%[46.1 µM]	2.9%	/	/	/	/	?	-6%
#6 Cc1cc(-c2nnc(SCC(=O)Nc3ccccc3Cl)n2C)no1
  -19%	/	-5%	19%[46.1 µM]	1%	5%	-13%	/
#7 O=C(NCCCN1CCN(c2ccccc2F)CC1)c1ccc2nc(CCc3ccccc3)oc2c1
  -24%[46.1 µM]	-3.2%	/	/	/	/	?	-4%
#8 COc1ccc(N2CCN(C(=O)c3cc4c(s3)-c3ccccc3S(=O)(=O)C4)CC2)cc1
  -20%[46.1 µM]	/	3%	?	-2%	1%	-17%	/
#9 Cc1cccc(N2CCN(C(=O)c3cn(C)c(=O)c4c3c3ccccc3n4C)CC2)c1C
  6.5µM*	-9.7%	-56%	?	2%	-25%	-3%	?
#10 O=C(c1cc(-c2ccccc2)nc2ccccc12)N1CCN(c2ccccc2O)CC1
  -23%	/	-42%	?	-16%	-7%	-8%	/
#11 COc1cc(OC)cc(-n2nnnc2SCC(=O)N2CCCC2)c1
  -27%	2.9%	1%	6%	10%	-8%	/	1%
#12 COc1ccc(-c2nc(CS(=O)(=O)CC(=O)NCCc3ccc(C)cc3)c(C)o2)cc1
  7%[46.1 µM]	-1.3%	13%	-2%&-2%[46.1 µM]	-4%	3%	0%&13%	-2%
#13 O=C(C1=C(O)C(=O)N(CCN2CCOCC2)C1c1cccnc1)c1cc2ccccc2o1 (stereo not given)
  -16%	-1.6%	10%	1%	6%	-10%	-7%	-5%
#14 O=C(CCN1C(=O)/C(=C/c2cccs2)SC1=S)NNC(=O)c1cccc(O)c1
  -14%	/	9%	-7%	-2%	3%	?	/
#15 Cc1c(N=CN2CCOCC2)c(=O)n(C)c(=O)n1C
  0%	-1.2%	4%	2%	-5%	9%	-25%	10%
#16 CCn1c(SCC(=O)O)nnc1-c1cc2c(C)nn(-c3ccccc3)c2s1
  14%	-4.1%	?	?	7%	-15%	-9%	?
#17 CCN(C(=O)CSc1nc(-c2ccc(C(C)C)cc2)no1)c1ccccc1
  ?	-6.2%	/	/	/	/	-25%	-11%
#18 CCOC(=O)c1c(N)sc(C(=O)N2CCCC(C(N)=O)C2)c1C (stereo not given)
  7%	/	/	2%	/	3%	-4%	/
#19 COCc1[nH]nc2c1C1(CCC3(CC1)OCCO3)C(C#N)=C(N)O2
  -2%	0.2%	4%	-6%	1%	-8%	-5%	-6%
#20 COc1ccccc1NC(=O)CSc1nc2ccccc2c2nc(-c3ccccc3)nn12
  -16%[46.1 µM]	1.7%	/	/	/	/	-25%	9%
#21 Fc1ccc(NC(=S)N2CCN(C/C=C/c3ccccc3)CC2)c(F)c1
  /	/	-3%	/	0%	15%	0%	/
#22 O=C(C1CCOCC1)N1CCCC(N2CCN(c3cccc(Cl)c3)CC2)C1 (stereo not given)
  ?	/	-5%	?	-3%	-2%	3%	/
#23 O=C(Nc1nc2ccc(SC(F)F)cc2s1)c1ccc2c(c1)S(=O)(=O)c1ccccc1C2=O
  16%	-4.6%	11%	-5%	23%	/	/	5µM*
#24 O=C(CSc1nc(-c2cccs2)cc(C(F)(F)F)n1)Nc1ccccc1Cl
  2%[46.1 µM]	-4.5%	/	?	/	/	-26%	-10%
#25 O=[N+]([O-])c1ccc(-c2nnc(-c3ccccc3)c(NCCCO)n2)cc1
  8%	-6.2%	2%	?	18%	-4%	-4%	-11%
#26 Cc1ccc(C2(C(F)(F)F)NC(=O)N3C(=C2C#N)Nc2ccccc23)cc1 (stereo not given)
  -13%	0.2%	6%	17%	4%	-7%	8%	?
#27 Cc1ccc(-n2ncc(C(=O)N3CCC(c4ccccc4)C3)c2C2CCN(C(=O)OC(C)(C)C)CC2)cc1 (stereo not given)
  /	-1.6%	/	/	/	/	-24%	?
#28 O=C(Nc1ccc(F)cc1)NC1(C(=O)NCc2ccco2)CCCCC1
  -7%	-4.6%	-1%	22%	2%	-2%	0%	?
#29 CC1CCc2c(sc(NC(=O)CSc3nc(N)cc(=O)[nH]3)c2C(N)=O)C1 (stereo not given)
  7%	/	/	?	0%	38%	?	/
#30 Nc1nc(-c2ccccc2)[nH]c(=O)c1N=O
  /	/	3%	/	-4%	-15%	7%	/

Remaining list, next part:
The line under a structure holds: Lassa entry inh	Cruzain Triton	NS1 function inh	Marburg entry inh	SARS PLP yeast	RE007 growth inh	StopGo reporter	Cruzain noTriton
#31 CCc1ccc(-n2c(O)c(/C=N/NC(=O)c3ccncc3)c(=O)[nH]c2=O)cc1
  -7%	-2.7%	3%	?	23%	-9%	-20%	-10%
#32 O=C(COC(=O)COc1ccccc1)NCc1ccc2c(c1)OCO2
  -15%	/	/	13%	-2%	8%	-25%	/
#33 COc1ccc(CN2C3CCC2CC(NC(=O)c2cccc(F)c2)C3)cc1 (stereo not given)
  /	/	10%	/	-1%	-8%	-1%	/
#34 CCOC(=O)C1CCCN(Cc2sccc2C)C1 (stereo not given)
  6%	8.1%	1%	1%	7%	16%	15%	9%
#35 Cc1nn(Cc2ccccc2Cl)c2sc(C(=O)NCCCn3ccnc3)cc12
  3%	5.6%	0%	-8%	-1%	-27%	-20%	0%
#36 OCC[C@@H]1C[C@@H](O)[C@H](O)[C@]2(OCc3ccccc32)O1
  /	/	-9%	/	-9%	-9%	-2%	/
#37 CCOC(=O)CC(=O)Nc1cc(Cl)ccc1O
  3%	4.4%	-8%	2%	-8%	2%	-16%	2%
#38 CCC(C)(C)NC(=O)C(c1ccc(OC)cc1)N(C(=O)CCC(=O)Nc1cc(C)on1)c1ccccc1OC (stereo not given)
  /	/	9%	-31%[46.1 µM]	0%	-9%	39%[activator]	/
#39 CCOc1ccc(N(CC(=O)NC2CCCCCC2)S(=O)(=O)c2c(C)[nH]c(=O)[nH]c2=O)cc1
  /	3.9%	0%	/	7%	3%	19%	2%
#40 O=C(Cc1ccccc1Cl)Nc1ccc(S(=O)(=O)N2CCOCC2)cc1
  -6%[46.1 µM]	/	/	24%	-8%	1%	17%	/
#41 CCn1cc(C(=O)NCCCOC)c(=O)c2cc(S(=O)(=O)N3CCc4ccccc4C3)ccc21
  -13%[46.1 µM]	-2.4%	/	-1%[46.1 µM]	/	/	-18%	1%
#42 CC[n+]1ccccc1/C=C/Nc1ccccc1
  5%	/	0%	-15%	0%	4%	-9%	/
#43 O=C(CN1C(=O)C2CC=CCC2C1=O)Nc1ccc(S(=O)(=O)NC2=NCCCCC2)cc1 (stereo not given)
  1%	3.3%	-3%	0%&10%	0%	2%	-1%	-6%
#44 CC(=O)Oc1ccc2c(C)c(CC(C)O)c(=O)oc2c1 (stereo not given)
  ?	?	-6%	?	-3%	17%	-14%	?
#45 CN(c1ccc(C(=O)O)cc1)S(=O)(=O)c1ccccc1
  19%	0.8%	-3%	0%	2%	15%	-16%	3%
#46 CCOC(=O)NC(=O)COC(=O)c1ccc(O)cc1
  ?	/	-5%	-14%[46.1 µM]	1%	3%	17%	/
#47 Cc1ccc(S(=O)(=O)/N=C(\N)Nc2nc(C)c3ccc(C)cc3n2)cc1
  ?	-2.9%	18%	?	-4%	12%	25%	11%
#48 COC(=O)c1cnc(N2CCCN(S(=O)(=O)c3ccccc3)CC2)nc1C(F)(F)F
  /	/	1%	/	-1%	-3%	-25%	/
#49 Cc1ccc(-n2nc(C(=O)Nc3ccc(F)cc3Cl)c(=O)n(C)c2=O)cc1
  11%[46.1 µM]	-1.1%	/	/	/	/	-17%	-3%
#50 CCn1nc(C)c(Br)c1Nc1ccc(Br)cc1
  -20%	/	-5%	-2%[46.1 µM]	-22%	17%	-19%	/
#51 COc1cc(CN2CCNC(=O)C2CC(=O)NC2CCCC2)cc(OC)c1 (stereo not given)
  -9%	/	8%	15%	10%	-10%	-9%	/
#52 CCOC(=O)c1c(C)[nH]c(C)c1S(=O)(=O)N1CCC(C(=O)Nc2ccc(C)c(Cl)c2)CC1
  -11%[46.1 µM]	-4.3%	/	/	/	/	-15%	?
#53 O=C(Nc1ccc(F)cc1)N(Cc1ccco1)Cc1cc2cc3c(cc2[nH]c1=O)OCO3
  -5%	-8.7%	6%	18µM*	2%	1%	?	7%
#54 Cc1cccc(NC(=O)CSCc2c(C)noc2C)c1C
  3%	2.7%	-11%	8%[46.1 µM]	-1%	-12%	-23%	-3%
#55 COc1ccc(C(C)=O)cc1COc1cccc2cccnc12
  /	/	-35%	/	2%	-22%	14%	/
#56 O=c1[nH]nc(CNc2ccc(O)cc2)c2ccccc12
  -18%	3.9%	7%	1%	7%	-16%	-12%	-13%
#57 CCOC(=O)C1CCN(S(=O)(=O)c2cccc(-c3cn4ccccc4n3)c2)CC1
  -21%	-2.6%	-35%	?	-1%	-29%	?	1%
#58 C=CCNC(=O)C12CC3CC(C1)CC(C(=O)NCC=C)(C3)C2
  1%	0.6%	3%	9%	-5%	-17%	-9%	4%
